# Abeta yeast res: compounds reversing amyloid beta toxicity in yeast | 0.063% of 410,000 active | AID 1347071 | Potency, µM (highest dose often 46.1 µM), for the others: at the top dose growth rescue, most hits filed as activators | yeast expressing A-beta42, growth rescue, OD600, 48 h; response scale: 0% DMSO, 100% iron-clioquinol control; also: potency is read from the fitted curve at half-maximal effect; nearly all actives have a fitted effect of over 55% in size
#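 Growth rescue measured by 600 nm absorbance after 48 h yeast culture at 30 C with compound. Values normalized between DMSO and an equimolar ferric chloride plus clioquinol control.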
# GLP1R ag: agonists of human GLP-1 receptor. P43220. HEK293 GLP-1R CRE-luciferase, luminescence, 4-6 h; cells express a hypersensitive GLP-1R form. 0.007% of 380,000 active. Potency, µM (highest dose often 45.6 µM), for inactives: at the top dose activation, actives largely listed as activators. AID 624172; also: potency is read from the fitted curve at half-maximal effect; % of control where 0% means no effect
# Target sequence (P43220 whole entry, looked up): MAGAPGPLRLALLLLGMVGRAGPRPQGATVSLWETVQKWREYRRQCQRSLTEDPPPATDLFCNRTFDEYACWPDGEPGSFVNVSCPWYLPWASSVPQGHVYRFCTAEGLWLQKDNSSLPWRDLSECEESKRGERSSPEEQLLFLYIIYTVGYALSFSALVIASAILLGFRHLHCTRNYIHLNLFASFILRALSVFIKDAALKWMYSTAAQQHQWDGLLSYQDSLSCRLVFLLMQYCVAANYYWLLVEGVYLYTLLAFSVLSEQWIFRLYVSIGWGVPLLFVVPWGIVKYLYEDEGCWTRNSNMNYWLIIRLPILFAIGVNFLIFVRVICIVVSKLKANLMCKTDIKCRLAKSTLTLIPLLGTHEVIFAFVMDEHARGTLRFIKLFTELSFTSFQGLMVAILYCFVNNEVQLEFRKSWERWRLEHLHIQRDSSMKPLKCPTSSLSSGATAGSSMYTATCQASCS
# GLP-1R inv ag: GLP-1 receptor (human) inverse agonism. Potency, µM (series often up to 38.3 µM), inactives show at the highest dose activity change, negative = inhibition, actives largely listed as inhibitors. HEK293 GLP-1R CRE-luciferase, luminescence, 24 h; GLP-1R form is constitutively active. AID 624417. 1.6% of 410,000 active. P43220; also: potency is read from the fitted curve at half-maximal effect; % is scaled to controls: 0 for no effect and ±100 for the full control effect; nearly all actives have a fitted effect of over 55% in size
#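 Cells are plated, allowed 12 hours at 37 deg C, then treated with compounds for 24 hr before luciferase detection reagent is added and luminescence is read after 12 min at room temperature. The HEK293 line carries constitutively active GLP-1R with a cAMP-responsive reporter.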
# aSyn rescue: rescues yeast growth from alpha-synuclein toxicity; Yeast expressing alpha-synuclein, growth rescue, BacTiter-Glo, 24 h; Potency, µM (titrated, usually from 46.1 µM), without a hit: at the highest dose growth rescue (activation), most hits filed as activators; 0.14% of 370,000 active; AID 652106; also: potency is read from the fitted curve at half-maximal effect; % of control where 0% means no effect; nearly all actives have a fitted effect of over 65% in size
#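 Galactose-induced alpha-syn yeast (OD600=0.02, raffinose-pregrown) + pinned cpd, 24 hr, 30 deg C; growth by BacTiter-Glo luminescence. Growth restoration scores as activation.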
# DRD3 antagonist: D3 dopamine receptor (human) antagonism | P35462 | D3R cells, DiscoveRx beta-arrestin luminescence, antagonist mode; active compounds read low | max response, negative = inhibition, % | 2.5% of 360,000 active | AID 652054; in the data active = max response below about -50%; inconclusive = no clear call, values can overlap the other calls; also: % is scaled to controls: 0 for no effect and ±100 for the full control effect; mostly tested at two doses, the higher about 12 µM
#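 Cells expressing the human receptor were seeded at 1500 cells/well, incubated overnight at 37 degrees C in 5% CO2, then exposed to library compounds with dopamine controls for 90 minutes at 37 degrees C before luminescent detection.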
# TDP-43 yeast inh: rescues yeast growth from TDP-43 toxicity | 1.8% of 410,000 active | TDP-43 expressing yeast growth rescue, BacTiter-Glo, 24 h | Potency, µM (series often up to 46.1 µM), for the others: at the top dose growth rescue (activation), actives largely listed as activators; also: potency is read from the fitted curve at half-maximal effect; % of control where 0% means no effect; nearly all actives have a fitted effect of over 50% in size
#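 Cell-based yeast growth screen: TDP-43 expression induced in galactose, inoculum OD600=0.02 after raffinose pregrowth to mid-log. Read-out BacTiter-Glo luminescence at 24 hr, 30 deg C; inhibition of toxicity seen as signal increase.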
# Akt phos inh: blocks phosphorylation of Akt; Neuro2A IGF-stimulated pAkt S473 HTRF, 20 min; active compounds read low; activity change, % for hits at 50 µM; 0.32% of 360,000 active; in the data active = activity change below about -80%; inconclusive = mostly about -51% to -80%; also: % is scaled to controls: 0 for no effect and ±100 for the full control effect
#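 Neuro2A cells in DMEM with 0.5% FBS, overnight at 37 deg C, given compound at single 50 µM final, then IGF (6 nM final) for 20 min at 37 deg C. Lysed; phospho-Akt Ser473 by HTRF after 24 h, 665/615 ratio.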
# FUS suppressor: rescues growth of FUS-expressing yeast; AID 1347120; Potency, µM (series often up to 76.6 µM), inactives show at the highest dose growth rescue (activation), hits mostly activators; S. cerevisiae FUS-expressing, growth rescue, OD600, 24 h; 0.24% of 390,000 active;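 also: potency is read from the fitted curve at half-maximal effect; plate controls were DMSO vehicle for no effect and reference control for full effect; nearly all actives have a fitted effect of over 55% in size; some results filed as inactive show a strong effect at the top dose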
#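 Yeast FUS proteinopathy model; galactose-induced FUS (2%), starting OD 0.005. Cpds in dilution series, 24hr, 30C, 99% humidity. Abs 600 nm growth. Pos ctrl CP55940 (top 92uM final); neg ctrl DMSO.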
# An asterisk follows results filed as active; i = inactive; ? = inconclusive; nt = not tested or not shown; [ ] = another dose, or the depositor's remark. Unless noted, calls follow the shape of the dose curve; as a rule, active = well fitted curve in the direction sought with a large enough effect; inconclusive = small, poorly fitted or top-dose-only effect, or another doubt; inactive = no such curve, though single readings can be large; an effect the other way counts as inactive or inconclusive.
# Every second line gives: Abeta yeast res	GLP1R ag	GLP-1R inv ag	aSyn rescue	DRD3 antagonist	TDP-43 yeast inh	Akt phos inh	FUS suppressor
CN(C)CCNC(=O)c1cc2cc(Br)ccc2oc1=O
  1%	-7%	0%	-5%	27	-37%	i	39%
CCOC(=O)Nc1ccc2c(c1)ncn2C1CCCCC1
  17%	25%	-19%	-1%	-13	-13%	i	12%
O=C(Cn1nc(-c2ccccc2)nc1-c1ccccc1)OC1CCCCC1
  -21%	15%	-32%	3%	-8	1%	i	28%
CCN1CCCC1CNS(=O)(=O)c1ccc(F)c(Cl)c1 (configuration not stated)
  0%	10%	-8%	0%	-9	-3%	i	13%
O=C(Cn1cnc2sc3c(c2c1=O)CCCC3)NCC(=O)Nc1c(F)cccc1F
  10%	1%	20%	-7%	20	-5%	i	13%
O=C(/C=C/NNC(=O)c1cccc(Br)c1)c1ccccc1
  19%	-7%	?	7%	0	17%	i	10%
COc1ccc(C(C#N)Nc2ccccc2C)cc1 (configuration not stated)
  5%	0%	5%	nt	-3	2%	nt	-8%
CCN1CCCC1CNC(=O)c1cc(S(=O)(=O)N(C)C)ccc1Cl (configuration not stated)
  10%	6%	11%	3%	-16	-1%	i	14%
Clc1ccccc1CNc1nc2ccccc2c2nc(-c3cccnc3)nn12
  -23%	nt	-9%	nt	nt	2%	nt	-2%
COc1ccc(-c2nc(CS(=O)CC(=O)N3CCc4ccccc4C3)c(C)o2)cc1 (configuration not stated)
  2%	13%	-20%	5%	2	26%	i	9%
COc1c(C)cccc1C(=O)NC(=S)Nc1ccc2c(c1)Cc1ccccc1-2
  -1%	0%	2%	-3%	11	12%	i	nt
O=C(NCc1ccco1)C1(S(=O)(=O)c2ccccc2)CC=CC1
  -4%	-1%	12%	-1%	-27	5%	i	-12%
O=C(CCN1CCN(CCO)CC1)Nc1ccc(F)c(F)c1
  10%	-9%	-3%	-7%	12	3%	i	-7%
C/C(=N\NC(=O)c1ccc(NS(=O)(=O)c2cccs2)cc1)c1ccc(Cl)cc1
  0%	-4%	1%	19%	-16	13%	i	36%
N#Cc1ncn(-c2ccc(Oc3ccccc3)cc2)c1N
  5%	10%	-14%	4%	6	1%[9.22 µM]	i	8%

# By substructure: those above containing nitrogen in an aromatic ring (six)
# Every second line gives: Abeta yeast res	GLP1R ag	GLP-1R inv ag	aSyn rescue	DRD3 antagonist	TDP-43 yeast inh	Akt phos inh	FUS suppressor
CCOC(=O)Nc1ccc2c(c1)ncn2C1CCCCC1
  17%	25%	-19%	-1%	-13	-13%	i	12%
O=C(Cn1nc(-c2ccccc2)nc1-c1ccccc1)OC1CCCCC1
  -21%	15%	-32%	3%	-8	1%	i	28%
O=C(Cn1cnc2sc3c(c2c1=O)CCCC3)NCC(=O)Nc1c(F)cccc1F
  10%	1%	20%	-7%	20	-5%	i	13%
Clc1ccccc1CNc1nc2ccccc2c2nc(-c3cccnc3)nn12
  -23%	nt	-9%	nt	nt	2%	nt	-2%
COc1ccc(-c2nc(CS(=O)CC(=O)N3CCc4ccccc4C3)c(C)o2)cc1 (configuration not stated)
  2%	13%	-20%	5%	2	26%	i	9%
N#Cc1ncn(-c2ccc(Oc3ccccc3)cc2)c1N
  5%	10%	-14%	4%	6	1%[9.22 µM]	i	8%

# Continuation.
# Every second line gives: Abeta yeast res	GLP1R ag	GLP-1R inv ag	aSyn rescue	DRD3 antagonist	TDP-43 yeast inh	Akt phos inh	FUS suppressor
COc1ccc(CCNC(=O)CCC(=O)Nc2nnc(C(C)C)s2)cc1OC
  14%	-8%	14%	4%	4	6%	i	-21%
Cc1cccc(-c2nc3c4ccccc4nc(NCc4ccccc4Cl)n3n2)c1
  -14%	nt	7%	nt	nt	0%	nt	16%
COc1ccc(-c2cc(C(=O)Nc3ccc(C#N)cc3)no2)cc1
  -15%	nt	3%	nt	nt	10%	nt	-9%
O=C(O)CSCC(=O)Nc1cccc2ccccc12
  -6%	-3%	-8%	-5%	-20	-7%	i	7%

# Three entries drawn at random from those above, as already listed:
# Every second line gives: Abeta yeast res	GLP1R ag	GLP-1R inv ag	aSyn rescue	DRD3 antagonist	TDP-43 yeast inh	Akt phos inh	FUS suppressor
O=C(O)CSCC(=O)Nc1cccc2ccccc12
  -6%	-3%	-8%	-5%	-20	-7%	i	7%
Cc1cccc(-c2nc3c4ccccc4nc(NCc4ccccc4Cl)n3n2)c1
  -14%	nt	7%	nt	nt	0%	nt	16%
COc1ccc(-c2cc(C(=O)Nc3ccc(C#N)cc3)no2)cc1
  -15%	nt	3%	nt	nt	10%	nt	-9%

# A portion of the library, so the mix of outcomes need not match the whole.
